# eIF4H FP inh: human eIF4H binding inhibitors, primary screen, translation initiation inhibitor project, biochemical, uHTS, fluorescence polarization; Eukaryotic translation initiation factor 4H (Homo sapiens), Q15056; eIF4H fluorescence polarization binding assay; inhibition, % at 35 µM; 290,000 tested, 0.94% active;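 active = 50% or more with normal probe brightness, or confirmed in later tests; about a fifth of its hits are not listed in these tables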;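 also: calls also rest on retests at 20 µM and on dose response follow-up; 0% = protein and probe with vehicle and 100% = probe without protein; strong numbers were not always called active; many hits fall short of the cut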
# CSC inhib: cancer stem cell viability inhibitors, primary screen, luminescence | cancer stem cell-like cells viability | inhibition, % at 7.5 µM | 300,000 tested, 1.1% active | AID 2717, 2010;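 active = mean at 75% or more and at least half the replicates too; tested in HMLE shEcad cells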;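 also: 0% = median of negative and 100% = median of positive control wells; the first replicate is given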
# HIV Env fusion: inhibitors of HIV-1 Env-driven cell-cell fusion, primary screen, HeLa-JRFL effector, CEM21 target cells, luciferase; inhibition, % at 12.3 µM; 360,000 tested, 1.1% active; AID 651610, 2012;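 active = mean replicate inhibition score of at least 50 and every replicate individually at or above 50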;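 also: 0% = plate neutral controls and 100% = maraviroc near 300 nM; one replicate is shown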
# Yeast UUG start: modulators of yeast start codon fidelity, primary screen, whole organism, S. cerevisiae, single point, plate reader; S. cerevisiae UUG-firefly luciferase reporter, luminescence/redox ratio; activity score, % at 18.7 µM; 350,000 tested, 0.13% active; AID 602363, 2012;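 active = replicate mean at a twofold rise or more, about +100% in these data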;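 also: firefly luciferase made from a UUG start codon reports start codon fidelity; reporter light over untreated wells divided by growth signal over untreated wells; some hits fall short of that in this replicate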
# MT1-MMP act inh: blockers of MT1-MMP proenzyme processing, primary screen, HT1080 RFP-PRO-GFP cells, GFP/RFP fluorescence; 360,000 tested, 0.061% active; AID 651647, 2012; GFP/RFP ratio fluorescence, overnight; percent of plate control window, DMSO zero; GFP/RFP ratio change, % at 20 µM; Matrix metalloproteinase-14 (Homo sapiens), P50281;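 active = GFP/RFP ratio change of at least 30% with cell ATP level not reduced by more than half and red fluorescence within 50% of control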; also: strong numbers were not always called active
#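 Material: RFP-PRO-GFP reporter HT1080 cells. Dosing: single-point 20 µM compound, 1% DMSO. Controls: DMSO and RFP-L50D-GFP cell wells. Timing: cells overnight before dosing, compound overnight, 37 °C, 5% CO2. Measure: GFP/RFP fluorescence ratio.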
# Rce1 inh: yeast Rce1p protease inhibitors, primary screen, biochemical, fluorescence, cell-free homogeneous | yeast membranes, quenched prenylated peptide cleavage fluorescence | 290,000 tested, 0.27% active | CAAX prenyl protease 2 (Saccharomyces cerevisiae (strain ATCC 204508 / S288c)), Q03530 | calls only;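 active = fall in fluorescence gain of 50% or more versus controls, with final raw signal at or below 3038400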;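 also: plate controls were neutral control wells for no effect and wells lacking membranes for full effect; tested at 10 µM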
# Target sequence (Q03530 whole entry, looked up): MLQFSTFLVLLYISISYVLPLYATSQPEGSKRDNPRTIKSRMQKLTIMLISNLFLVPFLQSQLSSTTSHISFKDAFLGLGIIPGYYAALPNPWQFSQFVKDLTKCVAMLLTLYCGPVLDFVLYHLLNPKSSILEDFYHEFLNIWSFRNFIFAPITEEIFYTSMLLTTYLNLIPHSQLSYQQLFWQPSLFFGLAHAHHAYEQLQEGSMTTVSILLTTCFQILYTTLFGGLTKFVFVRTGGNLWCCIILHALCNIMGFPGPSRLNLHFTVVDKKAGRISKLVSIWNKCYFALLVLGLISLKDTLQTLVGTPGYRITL
# PABP FP inh: PABP poly(A) RNA binding inhibitors, primary screen, biochemical, fluorescence polarization, uHTS; 290,000 tested, 1% active; AID 2014, 2009; Polyadenylate-binding protein 1 (Homo sapiens), P11940; inhibition, % at 35 µM;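 active = 50% or more with normal probe brightness, or confirmed in later tests; about a fifth of its hits are not listed in these tables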;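 also: calls also rest on retests at 20 µM and on dose response follow-up; controls were probe without protein and protein plus probe with vehicle; some compounds called inactive have numbers as strong as hits; many hits fall short of the cut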
# Target sequence (P11940 whole entry, looked up): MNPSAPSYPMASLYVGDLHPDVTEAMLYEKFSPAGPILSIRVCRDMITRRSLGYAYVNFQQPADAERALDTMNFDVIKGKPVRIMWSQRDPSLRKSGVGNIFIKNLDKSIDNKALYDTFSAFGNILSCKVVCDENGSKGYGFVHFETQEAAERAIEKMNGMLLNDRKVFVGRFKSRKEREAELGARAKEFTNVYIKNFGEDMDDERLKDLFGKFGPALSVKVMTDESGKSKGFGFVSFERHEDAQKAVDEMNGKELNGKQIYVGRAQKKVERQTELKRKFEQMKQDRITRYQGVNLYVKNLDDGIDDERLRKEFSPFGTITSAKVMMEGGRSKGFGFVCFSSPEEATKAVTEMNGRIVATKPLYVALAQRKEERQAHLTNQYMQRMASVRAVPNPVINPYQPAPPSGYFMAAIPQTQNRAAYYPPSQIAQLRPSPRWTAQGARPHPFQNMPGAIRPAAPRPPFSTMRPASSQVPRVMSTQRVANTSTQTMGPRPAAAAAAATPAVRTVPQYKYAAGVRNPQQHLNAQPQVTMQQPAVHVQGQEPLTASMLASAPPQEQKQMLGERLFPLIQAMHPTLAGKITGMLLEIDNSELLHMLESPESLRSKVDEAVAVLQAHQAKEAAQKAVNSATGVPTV
# MT1-MMP act inh RFP: also measured in MT1-MMP act inh; calls as there; RFP signal change, %; measured here: RFP expression control read;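 0 = vehicle wells; hits needed this value within 50% of zero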
# Starred values were filed as active, the others as inactive; i = inactive; . = no result given. This is a subset; rates above refer to the full screens.
SMILES,eIF4H FP inh,CSC inhib,HIV Env fusion,Yeast UUG start,MT1-MMP act inh,MT1-MMP act inh RFP,Rce1 inh,PABP FP inh
C=CCOc1ccc(/C=N/NC(=O)C2CCCC2)cc1OCC,-2,-10,-23,-25,-4,-4,i,39
Cc1ccc(NC(=O)COc2cccc3ccc(C)nc23)c(Br)c1,-8,20,-12,-4,5,1,i,2
COc1ccc(N2CCN(C(=O)c3csc4ccccc34)CC2)cc1,-8,4,-12,-20,0,-2,i,-3
NNC(=O)c1cnn(-c2ccccc2)c1-n1cccc1,-16,-6,1,-4,1,3,i,-11
COc1ccc(CCNC(=O)C2CC(c3cccc(F)c3)=NO2)cc1 (stereo not drawn),-7,-9,-30,-9,1,6,i,-4
COC(=O)c1sccc1NC(=O)CSc1ccccc1NS(=O)(=O)c1ccccc1Cl,-20,9,-2,-9,-5,-8,i,4
COc1ccc(-c2cc(C(=O)NCC3CCCO3)c3ccccc3n2)c(OC)c1 (stereo not drawn),-1,10,9,4,-5,-2,i,3
COc1ccc2[nH]c3c(c2c1)CCN1C(=O)C(CC(=O)NCc2ccc(OC)c(OC)c2)C[C@H](C(=O)N2CCOCC2)[C@@]31CCC1CCCC1 (stereo partly drawn),.,.,-44,3,-10,-7,.,.
NC1(C(=O)O)CC1,.,-5,-12,8,-1,4,i,.
Cc1cc(C(=O)N(C)Cc2ccc(Br)cc2)no1,-6,6,12,-3,6,3,i,20
Cc1ccc(NC(=O)CN2CCC(NC(=O)C3CCCCC3)CC2)c(Br)c1,-4,1,5,.,-2,-4,.,-6
CNC(=O)/C(C#N)=C/c1ccc(OCCOc2ccccc2)cc1,1,-26,-23,-26,.,.,i,-5
NC(=O)CSc1ncc(-c2ccc([N+](=O)[O-])cc2)[nH]1,5,-7,-50,.,0,2,i,-12
Cc1nnsc1S(=O)c1ccc(Cl)c(Cl)c1 (stereo not drawn),-2,.,3,-14,-6,-3,i,-12
CC(=O)Nc1ccc(N=C(C2=C(O)c3ccccc3C2=O)c2ccccc2)cc1,5,-4,23,.,-13,-7,i,-4
CCN(CC)C(=O)COc1ccc(S(=O)(=O)N2CCOCC2)cc1,-13,5,-23,-21,8,6,i,-5
C=CCn1c(SCC(=O)c2ccc(CNC(C)=O)o2)nc2ccccc2c1=O,28,-12,.,-11,2,1,i,17
COc1ccc(CN(C)C(=O)COc2cccc(-n3cnnn3)c2)cc1OC,.,-8,-1,2,-2,2,.,.
Cc1onc(-c2ccc(Cl)cc2)c1-c1ccnc(SCC(=O)Nc2cc(Cl)cc(Cl)c2)n1,-4,16,75*,.,-1,-2,i,1
Nc1c(-c2n[nH]c(=S)n2-c2ccc(Cl)cc2Cl)cnn1-c1ccccc1,-6,-20,16,-9,1,-3,i,-20
Cc1ccc(C(=O)COC(=O)CNC(=O)CN2C(=O)c3ccccc3C2=O)cc1,-2,-15,3,.,2,6,i,14
Cc1cccc(C(=O)OC2CCCN(C)C2)c1C (stereo not drawn),-2,15,10,-5,-3,2,i,-1
COCCCn1c(=O)c2ccccc2n(CC(=O)NC2CCCC2)c1=O,15,-4,-3,3,-1,3,i,-1
CN(C)c1ccc(/C=N/NC(=O)c2ccc(CN3C(=O)c4cccc5cccc3c45)cc2)cc1,0,11,.,.,.,.,i,8
COc1ccc(Cl)c(Cn2c(NCc3ccccn3)nc3c2c(=O)n(C)c(=O)n3C)c1,-13,-12,.,7,-2,-2,i,-18
COCCCNc1oc(-c2ccccc2OC)nc1C#N,1,-6,-36,-2,2,3,i,6
COc1ccc(CCN2C(=O)CC(C(N)=O)SC2=Nc2ccccc2)cc1 (stereo not drawn),39,-15,13,12,2,-4,i,-3
COC(=O)c1cc(C(=O)OCC(=O)N2c3ccccc3NC(=O)C2(C)C)cc([N+](=O)[O-])c1,-2,-12,.,.,-9,3,i,4
COCCn1c(SCC(=O)NCc2ccco2)nnc1C(C)C,-1,.,-16,2,-1,0,i,1
COc1ccccc1NC(=O)c1ccc(N2CC3CC(C2)c2cccc(=O)n2C3)c(NC(=O)c2cccnc2)c1 (stereo not drawn),-2,-1,-1,-8,-2,2,i,1
Cn1cnnc1SCc1ccc(C(=O)NN)cc1,-3,-13,18,-11,1,4,i,-6
O=C(COc1cccc(NC(=O)c2ccco2)c1)c1ccc(F)cc1,-6,.,.,4,-2,-3,.,-6
O=C(Nc1cc(-c2ccccc2)nn1-c1ccccc1)c1ccccc1F,.,14,11,-34,-4,0,.,.
O=C(N/N=C/c1ccc(-c2cccc([N+](=O)[O-])c2)o1)c1ccccc1O,32,25,0,.,3,-9,i,-16
CCOc1ccc(OCCC(=O)N(CC)CC(=O)Nc2ccccc2C(F)(F)F)cc1,.,-16,2,-7,2,2,i,.
NS(=O)(=O)c1cc2c(cc1Cl)NC(C1C[C@H]3C=C[C@@H]1C3)NS2(=O)=O (stereo partly drawn),-2,-12,.,-8,1,0,i,11
COc1nc(C)nc2c1ccc1ccccc12,4,-3,.,-8,2,6,i,-4
COc1ccc(/C=C2\SC(=S)N(CC(=O)OCC(=O)Nc3cc(Cl)cc(Cl)c3)C2=O)cc1,-1,-2,-9,.,-2,2,i,-8
O=C(O)C1CC(=O)N(c2ccc(OCc3ccc(Cl)cc3Cl)cc2)C1 (stereo not drawn),-8,-12,.,11,7,1,i,0
CCCCNC(=O)c1onc(CSc2ccc(C(C)C)cc2)c1C(=O)O,2,32,.,-14,2,2,i,12

# An excerpt from above in order of length of the SMILES, rising.
SMILES,eIF4H FP inh,CSC inhib,HIV Env fusion,Yeast UUG start,MT1-MMP act inh,MT1-MMP act inh RFP,Rce1 inh,PABP FP inh
Cn1cnnc1SCc1ccc(C(=O)NN)cc1,-3,-13,18,-11,1,4,i,-6
COCCCn1c(=O)c2ccccc2n(CC(=O)NC2CCCC2)c1=O,15,-4,-3,3,-1,3,i,-1
CCOc1ccc(OCCC(=O)N(CC)CC(=O)Nc2ccccc2C(F)(F)F)cc1,.,-16,2,-7,2,2,i,.

# The listing continues.
SMILES,eIF4H FP inh,CSC inhib,HIV Env fusion,Yeast UUG start,MT1-MMP act inh,MT1-MMP act inh RFP,Rce1 inh,PABP FP inh
COc1cc(C)ccc1OCC(=O)OCC(=O)c1[nH]c(C)c(C(C)=O)c1C,.,-9,10,.,3,5,.,.
CC(C)OC(=O)C(C)Nc1ccc(F)c(Cl)c1 (stereo not drawn),-3,-10,-1,-14,-1,0,i,-4
Cc1nc(SCc2nc3ccccc3[nH]2)c2oc3ccccc3c2n1,-18,3,.,-14,8,-11,i,9
CC(C)n1cc([C@@H]2C[C@H]3CN(Cc4cccc(Cl)c4)C(=O)[C@]34CCCN24)cn1,5,-4,19,.,-3,1,i,-11
CCc1cc2c(C)ccc(C)c2nc1SCC(=O)Nc1c(C)[nH]c(=O)[nH]c1=O,-7,-2,-8,-12,-6,-4,i,-8
CCOC(=O)c1c(NC(=O)CC)sc(C(C)=O)c1C,3,-17,.,-3,0,-2,i,-4
Cc1ccc(C)n1NC(=O)c1ccc(Cl)cc1,-4,-7,.,-20,-5,-3,i,-6
CCOC(=O)c1ccc(N2C(=O)C(O)=C(C(C)=O)C2c2ccc([N+](=O)[O-])cc2)cc1 (stereo not drawn),-14,2,9,-6,1,5,i,-3
CCN(CC(=O)Nc1c(F)cccc1F)C(=O)c1ccc2c(c1)OCCO2,.,5,-13,.,-1,2,i,.
Cc1cccc(C)c1OCC(=O)N(Cc1ccc(N(C)C)cc1)C1CCS(=O)(=O)C1 (stereo not drawn),7,-16,17,7,2,-2,i,9
CSc1cc(C)[nH]c(=O)n1,-10,-9,-1,.,-1,1,i,-13
CCCN(CCC)C(=O)C1CCN(c2cc(C)nc3c(-c4ccc(OC)c(OC)c4)c(C)nn23)CC1,-17,13,30,-7,1,-5,i,-17
Cc1ccc(C(=O)N/C(=C\c2ccc(Cl)cc2)C(=O)NCCCN2CCOCC2)cc1,20,-13,4,-6,3,11,i,9
C=CCOc1ccc(CNc2nn[nH]n2)cc1OC,2,-11,.,-11,-2,-4,i,-2
COc1cccc(-c2c(C(=O)N/N=C/c3ccsc3)nnn2-c2nonc2N)c1,3,-2,-1,7,-6,-3,i,0
Cc1ccc(-c2ccc(=O)n(CC(=O)NCCC(C)C)n2)cc1,-2,3,-5,-5,-7,-1,i,-9
CCOC(=O)C1=NN(c2ccc(Cl)cc2)C(c2ccccc2)CC1=O (stereo not drawn),-2,-10,-70,-8,2,1,.,-2
COC(=O)c1ccc(NC(=O)CN2C(=O)CC(C)S(=O)(=O)c3ccccc32)cc1 (stereo not drawn),-5,1,1,-3,-1,3,i,5
CN(C(=O)c1c[nH]c(=O)cc1C(F)(F)F)c1ccc(Cl)c(Cl)c1,-1,5,-9,.,0,-4,i,5
Cc1ccc(C)c(-c2cc(C(=O)Nc3cccnc3)c3ccccc3n2)c1,-3,-5,.,-17,-2,-6,i,14
CCOC(=O)COc1ccc2c3c(c(=O)oc2c1)CCCC3,-4,-8,-1,-18,-3,2,i,-15
COc1cc(OC)c(NC(=O)Cc2ccc(OC)c(S(=O)(=O)N3CCOCC3)c2)cc1Cl,-10,-3,-1,-10,3,-1,i,3
O=C(NCCc1ccc(Cl)cc1)C1CCC(=O)N1Cc1ccccc1Cl (stereo not drawn),-5,11,-69,.,-2,-3,i,7
O=C(NC1CC1)c1ccccc1,.,.,1,-11,3,1,.,.
O=C(/C=C/Nc1ccc(F)cc1)c1ccc(Br)cc1,-6,-2,-129,-14,1,6,i,5

# Of the compounds above, these contain an aryl thioether with sulfur outside any ring:
SMILES,eIF4H FP inh,CSC inhib,HIV Env fusion,Yeast UUG start,MT1-MMP act inh,MT1-MMP act inh RFP,Rce1 inh,PABP FP inh
COC(=O)c1sccc1NC(=O)CSc1ccccc1NS(=O)(=O)c1ccccc1Cl,-20,9,-2,-9,-5,-8,i,4
NC(=O)CSc1ncc(-c2ccc([N+](=O)[O-])cc2)[nH]1,5,-7,-50,.,0,2,i,-12
C=CCn1c(SCC(=O)c2ccc(CNC(C)=O)o2)nc2ccccc2c1=O,28,-12,.,-11,2,1,i,17
Cc1onc(-c2ccc(Cl)cc2)c1-c1ccnc(SCC(=O)Nc2cc(Cl)cc(Cl)c2)n1,-4,16,75*,.,-1,-2,i,1
COCCn1c(SCC(=O)NCc2ccco2)nnc1C(C)C,-1,.,-16,2,-1,0,i,1
Cn1cnnc1SCc1ccc(C(=O)NN)cc1,-3,-13,18,-11,1,4,i,-6
CCCCNC(=O)c1onc(CSc2ccc(C(C)C)cc2)c1C(=O)O,2,32,.,-14,2,2,i,12
Cc1nc(SCc2nc3ccccc3[nH]2)c2oc3ccccc3c2n1,-18,3,.,-14,8,-11,i,9
CCc1cc2c(C)ccc(C)c2nc1SCC(=O)Nc1c(C)[nH]c(=O)[nH]c1=O,-7,-2,-8,-12,-6,-4,i,-8
CSc1cc(C)[nH]c(=O)n1,-10,-9,-1,.,-1,1,i,-13
